Screening data as filed in PubChem BioAssay.
PKD1 inh = inhibitors of human PKD1 kinase, biochemical, fluorescence polarization | 200,000 tested, 0.056% active | PKD1 kinase fluorescence polarization assay | AID 797, 2007 | Serine/threonine-protein kinase D1 (Homo sapiens), Q15139 | inhibition, %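 (about 10 µM by stock and volumes)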;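 active means inhibition of 50% or more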;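 further: controls were vehicle for no effect and a reference inhibitor for full effect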
INS promoter inh = inhibitors of insulin promoter-driven GFP, primary screen, imaging, TRM-6 cells (human fetal islet line), eGFP reporter, cell count | reporter expression induced with tamoxifen | inhibition, % at 2 µM | 130,000 tested, 0.9% active | AID 1273, 2008;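 active means inhibition above the mean plus 3 SD, with well images judged a real hit on visual review, cut at about 60% in these data, passing the limit was not always enough; inconclusive means inhibition over the cutoff but images rejected on review; inactive means inhibition not above the cutoff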
GALR2 ag = GALR2 receptor agonists, primary screen, cell-based; Galanin receptor type 2 (Homo sapiens), O43603; GALR2-expressing cells, agonist activation read-out; activation, %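 (tested at 5 µM)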; 140,000 tested, 0.48% active;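 active means above mean plus 3 SD of all compounds, about 5% in these data, not always enough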;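 further: 0% = vehicle buffer wells and 100% = reference agonist at full effect; tested in CHO reporter cells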
Target sequence (O43603 whole entry, looked up): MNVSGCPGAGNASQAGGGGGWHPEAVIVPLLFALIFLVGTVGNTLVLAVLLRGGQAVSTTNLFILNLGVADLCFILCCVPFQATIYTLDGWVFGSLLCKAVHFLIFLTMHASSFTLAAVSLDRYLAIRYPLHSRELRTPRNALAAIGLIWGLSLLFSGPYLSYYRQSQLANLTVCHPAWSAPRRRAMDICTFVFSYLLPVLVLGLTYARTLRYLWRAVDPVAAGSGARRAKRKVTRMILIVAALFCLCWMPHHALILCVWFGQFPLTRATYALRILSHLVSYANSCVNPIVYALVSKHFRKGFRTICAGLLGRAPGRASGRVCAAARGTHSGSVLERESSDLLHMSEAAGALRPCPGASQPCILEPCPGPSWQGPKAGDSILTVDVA
HSV replic up = enhancers of HSV replication in host cells, fold increase, host cell viability; HSV replication augmentation in cells; maximum fold increase; 220,000 tested, 0.005% active; AID 1956, 2009;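 active means peak rise of 1.5-fold or more in the series; inconclusive means self-fluorescent or not available for retest; tested in PC3 cells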;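 further: first round at 10 µM; read as green reporter fluorescence; hits show the peak of a series up to 25 µM; 1 = signal of infected wells without compound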
RGS16-Gao = modulators of RGS16 binding to Galphao, primary screen, biochemical, human proteins, multiplexed bead flow cytometry. bead-based flow cytometry RGS16-Galphao binding, fluorescence; actives lie on both sides. binding response (% of control), % at 10 µM. 220,000 tested, 0.38% active. AID 1441, 2008;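 active means below 25% or above 175%, edge rows of some plates excepted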;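 further: Galphao activated by GDP with aluminum fluoride before binding; 100% = wells without compound and 0% = beads without RGS; some results beyond the cut were filed as inactive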
Target sequence (O15492 whole entry, looked up): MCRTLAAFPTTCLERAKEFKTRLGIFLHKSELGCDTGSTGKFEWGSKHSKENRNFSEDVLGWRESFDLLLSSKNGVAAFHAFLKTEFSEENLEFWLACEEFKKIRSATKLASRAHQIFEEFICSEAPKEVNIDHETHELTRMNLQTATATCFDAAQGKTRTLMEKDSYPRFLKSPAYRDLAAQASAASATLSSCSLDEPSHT
Target sequence (P09471 whole entry, looked up): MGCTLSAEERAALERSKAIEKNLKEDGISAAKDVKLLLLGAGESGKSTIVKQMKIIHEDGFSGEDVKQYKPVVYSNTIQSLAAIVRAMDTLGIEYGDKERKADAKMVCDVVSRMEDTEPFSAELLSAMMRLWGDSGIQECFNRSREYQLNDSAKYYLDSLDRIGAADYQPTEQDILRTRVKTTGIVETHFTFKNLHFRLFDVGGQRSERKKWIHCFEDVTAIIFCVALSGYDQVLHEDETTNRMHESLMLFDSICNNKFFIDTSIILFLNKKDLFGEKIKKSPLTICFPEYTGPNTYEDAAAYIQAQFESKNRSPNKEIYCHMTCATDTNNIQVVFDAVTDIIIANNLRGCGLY
INS promoter inh cell count = further read-out of INS promoter inh, marked with its call; normalized cell count, %; measured here: cell count, toxicity; reference of the scale not given here;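 cells exposed to compound for 48 h; stained nuclei by imaging scaled within each plate; lower means fewer cells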
HSV replic up primary fold = second read-out of HSV replic up, no call of its own (marks repeat the call); fold increase; compound at 10 µM; measured here: primary screen fold increase 10 uM; tested in PC3 cells;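 GFP signal in the first replicate; 1 = infected wells without compound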
Starred values were filed as active, the others as inactive; i = inactive; ? = inconclusive; . = not tested or not shown.

Compound	GALR2 ag	INS promoter inh cell count	RGS16-Gao	HSV replic up primary fold	HSV replic up	PKD1 inh	INS promoter inh
CCCCN1C(=O)CC(N2CCOCC2)C1=O (centres undefined)	-3.8	101	101	1	i	-6	-21
O=C(Cn1cc(C(F)(F)F)ccc1=O)Nc1ccc(N2CCOCC2)cc1	.	.	103	0.89	i	7	.
CC(C)(C)c1ccc(-c2nnc(SCC(=O)Nc3sc4c(c3C#N)CCCC4)o2)cc1	-1.1	84	115	0.84	i	-1	54
O=C(C(Cc1ccccc1)n1cccc1)N1CCN(c2cccc(Cl)c2)CC1 (centres undefined)	-2.4	.	105	0.94	i	-2	.
O=C(O)c1cccc(S(=O)(=O)N2CCSCC2)c1	-2.4	.	102	0.89	i	-3	.
Cc1ccc(S(=O)(=O)CCC(=O)NCCN2C(=O)S/C(=C\c3ccccc3)C2=O)cc1	-1.9	.	99	0.74	i	-4	.
CCn1c(SCc2nc3cc(OC)c(OC)cc3c(=O)[nH]2)nc2ccccc21	.	.	103	0.83	i	6	.
Cc1nc2ccc(S(=O)(=O)NCC(=O)N3CCN(c4ccccc4)CC3)cc2s1	-2.2	53	96	1	i	-13	64
CCN(CC)C(=O)CSc1nc(-c2ccco2)cc(C(F)(F)F)c1C#N	-3.4	96	102	0.88	i	-10	-273
Cc1c(Cl)cccc1NC(=O)c1ncn[nH]1	.	.	104	0.89	i	.	.
COc1cc(/C=N/NC(=O)c2cccc(S(=O)(=O)N3CCOCC3)c2)cc(OC)c1O	.	.	105	0.93	i	-4	.
Cn1cnnc1SCC(=O)Nc1cccc(S(=O)(=O)N2CCCCCC2)c1	-0.7	.	92	1.3	i	-16	.
CC(C)n1nnnc1SCC(=O)N1CCOCC1	-1.1	82	101	0.92	i	-2	3
C/C=C/C=C/C(=O)[C@@H]1[C@@H]([C@]2(C)OC(=O)C(C)=C2O)[C@H]2/C(=C(O)/C=C/C=C/C)C(=O)[C@]1(C)C(=O)C2(C)O (some centres undefined)	.	.	93	0.88	i	.	.
COC(=O)c1sccc1NC(=O)/C=C/c1ccc(Cl)cc1Cl	-0.8	136	107	0.97	i	-1	0
Cc1nn(CC(=O)O)c(C)c1Cl	1.2	.	100	0.87	i	-7	.
Cc1cccc2cc(CNC3CCCC3)c(Cl)nc12	.	.	106	1	i	-7	.
CCC(=O)Nc1ccc(-n2nnnc2SCC(=O)NNC(=O)c2ccco2)cc1	.	.	99	0.87	i	.	.
O=C(CN1CCOCC1)Nc1nc(-c2ccc3c(c2)CCN3S(=O)(=O)c2ccccc2)cs1	0.1	137	111	0.98	i	-2	-15
Fc1ccc(-c2nc3ccncc3[nH]2)cc1	-1.2	166	100	0.94	i	-4	67
COc1ccc2c(c1)C1(Nc3ccccc3C(=O)N1c1ccccc1)C(=O)N2 (centres undefined)	-2.9	147	98	0.84	i	-2	7
O=C(O)CCCC(=O)Nc1ccn(-c2ccccc2)n1	-1.5	.	106	1.1	i	3	.
CC(C)(C)C1CCc2c(C(=O)NNC(=O)/C=C/C(=O)O)csc2C1 (centres undefined)	0.5	115	94	0.91	i	2	27
COc1ccc(N2CCN(Cc3nc(Cc4cccc(F)c4)no3)C(C)C2)cc1 (centres undefined)	.	.	111	1.1	i	25	.
COc1ccccc1-n1c(SC)nc(O)cc1=O	-3.7	.	103	0.85	i	-4	.
CCCCCCn1c(-c2ccco2)nc2oc3cc(OC)ccc3c(=O)c2c1=O	1.2	.	69	0.93	i	2	.
COc1nccnc1NS(=O)(=O)c1ccc(NC(=S)NC(=O)c2cccc(F)c2)cc1	-0.4	176	101	1.1	i	-4	32
CCn1c(=O)cc(SCC(=O)NCCC2=CCCCC2)c2ccccc21	-1.1	89	98	1.1	i	11	-20
CC(C)CC(=O)Nc1ccc([N+](=O)[O-])cc1Cl	.	.	83	1.1	i	4	.
O=C(CCNS(=O)(=O)c1cccc2nsnc12)N1CC(=O)N(CCc2ccccc2)C(=O)C1	-1.4	112	87	0.85	i	6	-21
COC(=O)c1ccc(COC(=O)c2ccc(-n3cnnn3)cc2)o1	-3.4	100	90	1.1	i	-12	21
COc1cccc(-c2nnc(SCC(=O)OC(C)C)n2Cc2ccco2)c1	-1.8	.	103	0.94	i	0	.
Cc1ccnc(NC(=O)COC(=O)c2ccc(F)cc2F)n1	.	.	94	1	i	.	.
COc1ccc(C(C(=O)NC2CCCCC2)N(C(=O)c2ccccn2)c2cccnc2)cc1 (centres undefined)	.	159	103	1	i	-8	7
CC(C)C(C(=O)NC1=NCCS1)c1ccc(Cl)cc1 (centres undefined)	.	37	114	1	i	-1	-33
COc1ccc(C(c2nnnn2Cc2cccs2)N2CCN(c3ccccc3)CC2)cc1OC (centres undefined)	-0.2	.	109	0.8	i	-2	.
Nc1ccccc1Sc1cc(Cl)nnc1Cl	.	.	99	1.1	i	.	.
O=c1c2ccccc2nc2n1CCCN2	.	99	110	1	i	-3	-50
CCN1CCN(C(=O)CN(c2ccc(C)cc2)S(C)(=O)=O)CC1	-1.3	126	100	0.89	i	-6	34
O=C(Cn1nnc2ccccc2c1=O)Nc1ccc(S(=O)(=O)N2CCOCC2)cc1	.	.	104	0.91	i	-10	.

Retrieved by structure from above:
Compound	GALR2 ag	INS promoter inh cell count	RGS16-Gao	HSV replic up primary fold	HSV replic up	PKD1 inh	INS promoter inh
COc1ccc(C(C(=O)NC2CCCCC2)N(C(=O)c2ccccn2)c2cccnc2)cc1 (centres undefined)	.	159	103	1	i	-8	7
COC(=O)c1ccc(COC(=O)c2ccc(-n3cnnn3)cc2)o1	-3.4	100	90	1.1	i	-12	21

Additional results.
Compound	GALR2 ag	INS promoter inh cell count	RGS16-Gao	HSV replic up primary fold	HSV replic up	PKD1 inh	INS promoter inh
C=CCOc1c(Br)cc(CNn2nnnc2N)cc1OC	-2.2	126	121	1	i	-8	-8
COc1cc2c(cc1OC)CN(C(=O)c1cc(=O)c3ccccc3o1)CC2	-0.5	89	-10	0.87	i	3	2
Cc1ccc(C)c(NC(=O)CN2C(=O)CNC2=O)c1	-3.9	88	105	1	i	-7	53
CCc1ccc(NC(=O)C(C)OC(=O)c2ccc(N3CCCC3)c([N+](=O)[O-])c2)cc1 (centres undefined)	-3.8	.	90	1.1	i	-7	.
COc1ccc(C2c3ccc(O)cc3Oc3ncn4nc(-c5ccncc5)nc4c32)cc1OC (centres undefined)	.	.	125	0.71	i	.	.
O=C(Nc1ccccc1C(=O)NCc1ccco1)c1ccco1	-2.7	.	100	0.89	i	-2	.
CSc1ccccc1NC(=O)CSc1nnnn1-c1ccccc1SC	-1.0	79	159	0.94	i	-4	-60
COc1ccccc1NC(=S)Nc1cccc2cnccc12	-1.7	.	99	1.1	i	10	.
O=C(O)c1cc(N/N=C/C=C/c2ccccc2)ccc1Cl	.	.	102	0.95	i	1	.
CCc1cccc(C)c1NC(=O)C1=C(C(=O)O)CCCC1	-0.7	.	101	1.2	i	-1	.
CC1CCN(S(=O)(=O)c2ccc3c(c2)c(=O)c(C(=O)NCc2ccco2)cn3C)CC1	-2.3	114	100	1	i	-9	29
O=C(COc1ccc(Br)cc1F)N1CCN(c2ncccn2)CC1	.	.	103	0.89	i	-11	.
COc1cc(/C=N/Nc2nc(C)cc(C)n2)ccc1OC(=O)c1ccco1	-1.6	76	104	0.93	i	-9	30
O=C(CSc1ncnc2ccccc12)Nc1ccc(N2CCOCC2)cc1	-2.0	.	105	1	i	-6	.
O=S(=O)(c1ccc(F)cc1)N1CN(Cc2ccco2)c2nc3ccccc3nc21	-0.6	100	103	.	?	-3	0
S=C(NCCC(c1ccccc1)c1ccccc1)Nc1cccc(Cl)c1	-2.8	120	102	0.99	i	-3	7
C(=N\N1CCN(Cc2cccc3ccccc23)CC1)/c1cccnc1	-1.4	96	103	1	i	-15	12
CCC1C(=O)CC(c2ccccc2)NC1c1ccccc1 (centres undefined)	.	.	102	1	i	-3	.
CC1(/[N+]([O-])=C/c2ccccc2F)CCCCC1=O (centres undefined)	.	105	102	1	i	-4	-59
Cc1c(/C=C/C(=O)c2ccc(Cl)s2)cnn1C	-1.2	97*	58	0.95	i	8	75*
CCOC(=O)N1CCN(C(=O)CSc2nnc(-c3cccs3)o2)CC1	-1.1	.	100	1.1	i	-8	.
CCOc1ccc(C(=O)Nc2cc(-c3nc4ccccc4[nH]3)ccc2Cl)cc1[N+](=O)[O-]	3.9	106	166	0.67	i	4	48
O=C(Nc1ccc(C(=O)O)cc1)/C(=C\c1ccc2c(c1)OCO2)NC(=O)c1ccccc1	.	93*	107	0.96	i	-7	80*
O=C(Nc1cccc2ccccc12)/C(=C\c1cccc([N+](=O)[O-])c1)NC(=O)c1cccs1	-1.9	102	101	0.81	i	-7	28
CCOC(=O)/C(C(=O)Nc1ccccc1Cl)=C1/NC(C)(C)Cc2ccccc21	-0.4	142	.	1	i	2	-16
Cc1ccc2nc3c(cc2c1)c(NC(=O)c1cccnc1)nn3C	0.9	.	79	0.91	i	11	.
Cc1ccc(S(=O)(=O)N(CC(O)CN2C(=O)NC(C)(C)C2=O)c2cccc(C)c2)cc1 (centres undefined)	.	.	97	1	i	.	.
O=C(Cn1c(=O)n(-c2cccc(Cl)c2)c(=O)n1CC(=O)N1CCCCC1)N1CCCCC1	-1.0	101	102	0.94	i	-3	13
CC1CCN(C(=O)C2CCC(CNc3c(N4CCCCC4)c(=O)c3=O)CC2)CC1 (centres undefined)	.	.	97	0.95	i	.	.
COC(=O)C/C(C)=N/Nc1ccc(S(=O)(=O)N2CCCC2)cc1[N+](=O)[O-]	-1.4	.	74	0.9	i	-7	.
CC1CCC/C(=N\NC(=S)NCc2ccccc2)C1 (centres undefined)	-1.8	117	106	1.2	i	-7	4
COc1ccc(NC(=O)COC(=O)/C=C/c2cnc3ccccc3n2)cc1	.	.	106	1	i	3	.
CCOC(=O)c1c(C)nc2c(C)cccn12	0.1	51	102	0.92	i	-2	-29
N/C(CC(=O)Nc1ccc(F)c(Cl)c1)=N\OC(=O)c1cccs1	.	.	105	0.83	i	.	.
CCS(=O)(=O)c1ccc(O)c(NC(=O)Nc2ccccc2OC)c1	.	.	104	1	i	.	.
Cc1cc(-c2ccccc2)nc(N2CCC(C(=O)NC(C)C)CC2)n1	-3.5	70	104	0.9	i	-5	-7
CCCOc1ccc(C(=O)NC(C)C(=O)O)cc1 (centres undefined)	-1.4	67	223	0.92	i	-1	22
CCS(=O)(=O)Nc1cccc(C(=O)O)c1	.	.	91	0.9	i	.	.
CCNC(=O)c1c(NC(C)=O)sc2c1CCCC2	0.6	75	98	1	i	-3	-31
OC(CNCc1ccc(Cl)cc1)C(F)(F)F (centres undefined)	.	127	102	1	i	-3	20
O=C(Nc1ccc2c(c1)OCO2)c1cnccn1	.	116	105	0.98	i	-4	8
COc1ccc(O)c(C(=O)c2cc(C#N)c(=O)n(-c3ccc(Cl)cc3)c2)c1	.	.	103	.	?	.	.
